# Screening results: PubChem, several laboratories
# GALR2 ag: agonists of human galanin receptor 2 (GALR2); O43603; GALR2-expressing cells, agonist activation read-out; actives 0.48% (n = 140,000); activation, %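 (tested at 5 µM)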;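 active = above mean plus 3 SD of all compounds, about 5% in these data, not always enough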;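 note: 0% = vehicle buffer wells and 100% = reference agonist at full effect; tested in CHO reporter cells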
# RGS16-Gao: modulates binding between human RGS16 and Galphao; AID 1441; O15492+P09471; actives 0.38% (n = 220,000); binding response (% of control), % at 10 µM; bead-based flow cytometry RGS16-Galphao binding, fluorescence; actives lie on both sides;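 active = below 25% or above 175%, edge rows of some plates excepted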;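 note: Galphao activated by GDP with aluminum fluoride before binding; 100% = wells without compound and 0% = beads without RGS; some results beyond the cut were filed as inactive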
# Insulin prom inh: TRM-6 insulin promoter activity inhibition. actives 0.9% (n = 130,000). TRM-6 cells (human fetal islet line), insulin promoter-eGFP reporter, imaging; reporter expression induced with tamoxifen. AID 1273. inhibition, % at 2 µM;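 active = inhibition above the mean plus 3 SD, with well images judged a real hit on visual review, cut at about 60% in these data, passing the limit was not always enough; inconclusive = inhibition over the cutoff but images rejected on review; inactive = inhibition not above the cutoff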
# HSV augment: increases HSV replication in cells; maximum fold increase; actives 0.005% (n = 220,000); HSV replication augmentation in cells, fold increase; AID 1956;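 active = peak rise of 1.5-fold or more in the series; inconclusive = self-fluorescent or not available for retest; tested in PC3 cells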;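 note: first round at 10 µM; read as green reporter fluorescence; hits show the peak of a series up to 25 µM; 1 = signal of infected wells without compound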
# PKD1 kinase inh: PKD1 (human) kinase inhibition. inhibition, %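 (about 10 µM by stock and volumes)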. PKD1 kinase fluorescence polarization assay. Q15139. AID 797. actives 0.056% (n = 200,000);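 active = inhibition of 50% or more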;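 note: controls were vehicle for no effect and a reference inhibitor for full effect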
# Target sequence (Q15139 whole entry, looked up): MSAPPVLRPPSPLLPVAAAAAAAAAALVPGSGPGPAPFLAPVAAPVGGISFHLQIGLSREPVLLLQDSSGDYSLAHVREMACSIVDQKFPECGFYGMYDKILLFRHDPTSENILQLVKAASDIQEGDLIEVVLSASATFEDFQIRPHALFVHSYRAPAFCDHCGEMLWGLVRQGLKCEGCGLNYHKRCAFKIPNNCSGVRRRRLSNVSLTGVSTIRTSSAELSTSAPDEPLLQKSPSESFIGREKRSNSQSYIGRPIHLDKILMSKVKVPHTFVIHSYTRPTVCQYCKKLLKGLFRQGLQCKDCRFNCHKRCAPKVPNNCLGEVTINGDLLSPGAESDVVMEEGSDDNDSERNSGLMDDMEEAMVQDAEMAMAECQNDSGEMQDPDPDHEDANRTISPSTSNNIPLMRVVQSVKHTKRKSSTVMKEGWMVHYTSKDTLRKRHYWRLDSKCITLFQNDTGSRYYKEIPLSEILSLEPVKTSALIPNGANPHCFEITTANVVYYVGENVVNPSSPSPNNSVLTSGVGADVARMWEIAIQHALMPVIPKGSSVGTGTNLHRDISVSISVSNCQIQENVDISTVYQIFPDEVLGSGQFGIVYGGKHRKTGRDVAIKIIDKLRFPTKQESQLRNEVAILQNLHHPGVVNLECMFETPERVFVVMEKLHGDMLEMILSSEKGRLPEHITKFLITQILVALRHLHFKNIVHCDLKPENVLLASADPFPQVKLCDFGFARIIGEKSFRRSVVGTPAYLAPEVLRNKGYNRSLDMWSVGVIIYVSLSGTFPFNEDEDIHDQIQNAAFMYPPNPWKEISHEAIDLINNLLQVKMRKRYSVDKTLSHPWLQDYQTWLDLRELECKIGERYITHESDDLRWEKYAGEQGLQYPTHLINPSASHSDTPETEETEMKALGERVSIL
# Insulin prom inh cell count: also measured in Insulin prom inh; calls as there; normalized cell count, %; measured here: cell count, toxicity; reference of the scale not given here;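 cells exposed to compound for 48 h; stained nuclei by imaging scaled within each plate; lower means fewer cells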
# HSV augment primary fold: also measured in HSV augment; calls as there; fold increase; compound at 10 µM; measured here: primary screen fold increase 10 uM; tested in PC3 cells;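 GFP signal in the first replicate; 1 = infected wells without compound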
# * = called active by the depositor; i = inactive; ? = inconclusive; . = no result given; & = joins results of further samples.
SMILES,GALR2 ag,RGS16-Gao,Insulin prom inh,Insulin prom inh cell count,HSV augment,HSV augment primary fold,PKD1 kinase inh
COC(=O)CCC(=O)Nc1ccc(Br)cc1,-0.8,94,.,.,i,1.1,0
Cc1cc(C)n(-c2ccc(S(=O)(=O)N3CCOCC3)cc2[N+](=O)[O-])n1,.,97,.,.,i,1.2,.
COc1ccc(NC(=O)c2cc(C)on2)cc1OC,-1.9,104,29,110,i,1.1,-7
O=C(CC1SC(=O)NC1=O)Oc1ccc(/C=N/NC(=O)c2ccccc2O)cc1 (centres undefined),.,102,.,.,i,1.1,.
COC(=O)c1ccc(NC(=O)Cc2ccc(C)cc2)cc1,-2.0,111,-10,99,i,1,-1
COc1ccc(/C=C/C(=O)NCCCn2ccnc2)cc1,-0.6,104,24,134,i,1,-1
COc1cc(NC(=O)c2ccccc2Cl)ccc1NC(=O)c1ccco1,-0.3,103,-47,125,i,1.1,-1
CCn1c(SCC(=O)NCc2ccco2)nnc1C(C)C,-1.5,107,.,.,i,0.95,-15
COc1ccc(NC(=O)CN(C)C(C)C(=O)N2CCCCC2)cc1 (centres undefined),-1.4,114,43,73,i,1,0
CN1C(=O)OC(C)(CCc2ccccc2)C1(C)O (centres undefined),-2.5,99,-36,193,i,0.91,-6
CCS(=O)(=O)c1ccc(O)c(NC(=O)COc2ccc(Cl)cc2)c1,.,55,.,.,i,1.1,3
CC1Cc2nc(SCC(=O)NCc3ccccc3)n(Cc3ccccc3)c(=O)c2S1 (centres undefined),-3.5,99,.,.,i,1,-3
CCn1c(SCC(=O)NCc2ccco2)nc2ccccc2c1=O,.,112,0,87,i,1,0
COc1ccc(/C(C)=N/N=C(N)N)c(O)c1,.,101,.,.,i,0.9,.
O=C(NCc1cccnc1)c1ccc(Cl)cc1[N+](=O)[O-],-1.9,105,-54,67,i,1.1,-13
O=C(Cn1nc(C(F)(F)F)c2c1CCCC2)NC1CCCC1,-2.6,100,-30,108,i,1.1,-6
COC(=O)c1cccc(NC(=O)CN2CCC(NC(=O)c3cc(OC)c(OC)c(OC)c3)CC2)c1,-0.7,110,.,.,i,0.92,2
CCCCCCn1c(CN2CCN(CCO)CC2)nc2c1c(=O)n(C)c(=O)n2C,-0.7,136,100*,78*,i,0.96,-7
CCOC(=O)c1ccc(NC(=O)c2cn(CCC#N)nc2-c2ccc3c(c2)OCCO3)cc1,0.2,98,.,.,i,0.9,-9
Cc1ccc(CS(=O)(=O)CCC(=O)NCCCN2CCCC2)cc1,-0.6,103,-78,69,i,1.1,-4
Cc1ccc2occ(/C=N/NC(=O)[C@@H](N)Cc3ccccc3)c(=O)c2c1,.,98,.,.,i,0.95,.
O=C(CSc1ncnc2ccccc12)NCC(=O)c1ccccc1,.,105,36,97,i,0.83,4
Cc1ccc(Sc2nc(C)c([N+](=O)[O-])c(C)c2C#N)cc1,.,100,.,.,i,0.85,.
O=C(NC1CCCCC1)Oc1cc2oc(=O)sc2cc1Br,.,97,.,.,i,1.1,.
NC(=O)c1ccsc1NC(=O)C1CCCCC1,-1.3,102,.,.,i,0.93,6
C=C1SC(=Nc2ccccc2Cl)N(C(=O)c2sc3ccccc3c2Cl)C12CCCCC2,.,117,.,.,i,1.1,.
COc1ccc(NC(=O)c2oc3ccccc3c2C)c(OC)c1,-1.0,110,10,87,i,0.84,2
OCC(Cc1ccc2c(c1)OCO2)C(CO)Cc1ccc2c(c1)OCO2 (centres undefined),.,106,.,.,i,1.1,.
CCOc1ccccc1NC(=O)CSc1nnc(Cc2cccn2C)n1-c1ccc(F)cc1,-2.8,113,.,.,i,0.85,7
CCc1cc(C(=O)O)c(NC(=O)/C=C/c2ccc(OC)c(OC)c2)s1,.,99,.,.,i,0.82,6
Cc1nc2ccc(S(=O)(=O)N(C)CC(=O)Nc3ccccc3F)cc2s1,.,110,.,.,i,1.2,6
CCOC(=O)C1(CC)NC(c2ccco2)C2C(=O)N(CC)C(=O)C21 (centres undefined),0.8,102,-13,93,i,0.71,1
CN(C)CCCN1C(=O)C(=O)/C(=C(/O)c2ccncc2)C1c1cccc(Br)c1 (centres undefined),-0.3,104,11,111,i,0.91,-5
O=C(Cn1cccc1C(=O)c1ccccc1)NCc1cccs1,0.2,97,.,.,i,1.1,10
CCOC(=O)c1nnn(-c2nonc2N)c1CN(CC)c1ccccc1,-0.7,102,-32,159,i,0.99,0
CNCCc1ccccn1,0.3,50,-19,45,i,0.66,2
O=C(NCc1ccc(F)cc1)C1CCN(S(=O)(=O)c2ccc3c(c2)OCCCO3)CC1,-0.7,102,.,.,i,1.1,11
CC(C)c1nccn1S(=O)(=O)c1cccc([N+](=O)[O-])c1,-2.4,67,22,65,i,0.86,-10
COC(=O)c1sccc1NC(=O)CC1C(=O)NCCN1C(=O)c1c(F)cccc1Cl (centres undefined),.,88,.,.,i,0.97,.
CCOc1cc(/C=N/NC(=O)CSc2nncn2C)ccc1OC(=O)c1ccc(Cl)cc1,-1.2,43,19,128,i,0.91,-10
C=CCN1CC(c2nc3ccccc3n2Cc2ccccc2)CC1=O (centres undefined),-1.9,103,-41,79,i,0.93,-1
O=C(Nc1cccc(Cl)c1)Nc1nccs1,-0.4,102&95,.,.,i,0.84,3
Cc1cc(C)c2c(c1)cc(C)c1nnc(SCC(=O)Nc3ccc(S(=O)(=O)N4CCCCC4)cc3)n12,-0.5,105,-3,97,i,0.83,-16
Cc1cc2c(c(=O)n1CCN(C)C)C(c1ccc(Br)cc1)C(C#N)=C(N)O2 (centres undefined),-2.0,106,17,107,i,0.99,-14
O=C(NCc1ccc(Cl)cc1)c1ncn[nH]1,.,102,-33,125,i,1.1,-8
O=C(CC1C(=O)NCCN1Cc1ccc(F)c(F)c1)NCCn1cccn1 (centres undefined),.,105,-50,106,i,1.1,-3
O=C(c1ccco1)N1CCN(C(=O)c2cccc3c2C(=O)N(Cc2cccnc2)C3)CC1,-1.1,103,.,.,i,0.92,-19
CCCCOc1ccc(-c2nnn(CC(=O)NCCc3c[nH]c4ccccc34)n2)cc1,-2.5,104,-175,124,i,0.91,-7
Cc1cccc(-n2nnc(C(=O)NCc3ccccc3)c2N)c1,-0.2,102,3,55,i,0.98,-6
O=C(CNS(=O)(=O)c1cccc2nsnc12)NC1CCCCC1,-2.1,55,.,.,i,0.82,-4
O=C(Nc1ccc2c(c1)Cc1ccccc1-2)c1ccc(Br)o1,-1.0,101,-77,105,i,0.99,-2
O=C(Nc1ccc2sccc2c1)c1cccc(N2C(=O)CCC2=O)c1,.,100,.,.,i,1,-5
C=CCNC(=O)COC(=O)CCC(=O)c1cccs1,.,96,.,.,i,0.98,.
CCCn1c(CCC(=O)O)ccc1-c1cccs1,-0.8,98,3,126,i,1,-4
O=C(COc1ccccc1)NC(NC(=S)Nc1ccccc1C(=O)O)C(Cl)(Cl)Cl (centres undefined),-1.8,103,-48,110,i,1.1,2
CN1CC2(C(=O)c3ccccc3)CN(C)CC(C(=O)c3ccccc3)(C1)C2,-1.7,100,-100,94,i,1,-1
O=C(CCCOc1ccccc1)N1CCCc2ccccc21,-0.7,104,-4,55,i,0.82,-1
COC(=O)C(NC(=O)c1ccco1)(Nc1nc(C2CC2)cs1)C(F)(F)F (centres undefined),0.3,101,-30,110,i,1,-2
O=C(O)c1ccc(COc2ccc3ccccc3c2/C=C2/NC(=O)N(c3ccccc3)C2=O)cc1,-1.3,97,11,118,i,0.81,-5
Cc1cc(C(=O)Cn2nc(C(=O)O)c3ccccc3c2=O)c(C)n1-c1ccc(F)cc1,-1.5,90,15,69,i,0.87,0

# Twelve neighbouring entries already listed:
SMILES,GALR2 ag,RGS16-Gao,Insulin prom inh,Insulin prom inh cell count,HSV augment,HSV augment primary fold,PKD1 kinase inh
Cc1cccc(-n2nnc(C(=O)NCc3ccccc3)c2N)c1,-0.2,102,3,55,i,0.98,-6
O=C(CNS(=O)(=O)c1cccc2nsnc12)NC1CCCCC1,-2.1,55,.,.,i,0.82,-4
O=C(Nc1ccc2c(c1)Cc1ccccc1-2)c1ccc(Br)o1,-1.0,101,-77,105,i,0.99,-2
O=C(Nc1ccc2sccc2c1)c1cccc(N2C(=O)CCC2=O)c1,.,100,.,.,i,1,-5
C=CCNC(=O)COC(=O)CCC(=O)c1cccs1,.,96,.,.,i,0.98,.
CCCn1c(CCC(=O)O)ccc1-c1cccs1,-0.8,98,3,126,i,1,-4
O=C(COc1ccccc1)NC(NC(=S)Nc1ccccc1C(=O)O)C(Cl)(Cl)Cl (centres undefined),-1.8,103,-48,110,i,1.1,2
CN1CC2(C(=O)c3ccccc3)CN(C)CC(C(=O)c3ccccc3)(C1)C2,-1.7,100,-100,94,i,1,-1
O=C(CCCOc1ccccc1)N1CCCc2ccccc21,-0.7,104,-4,55,i,0.82,-1
COC(=O)C(NC(=O)c1ccco1)(Nc1nc(C2CC2)cs1)C(F)(F)F (centres undefined),0.3,101,-30,110,i,1,-2
O=C(O)c1ccc(COc2ccc3ccccc3c2/C=C2/NC(=O)N(c3ccccc3)C2=O)cc1,-1.3,97,11,118,i,0.81,-5
Cc1cc(C(=O)Cn2nc(C(=O)O)c3ccccc3c2=O)c(C)n1-c1ccc(F)cc1,-1.5,90,15,69,i,0.87,0

# (cont.)
SMILES,GALR2 ag,RGS16-Gao,Insulin prom inh,Insulin prom inh cell count,HSV augment,HSV augment primary fold,PKD1 kinase inh
O=C(Oc1ccccc1-c1csnn1)c1cccs1,.,96,23,121,i,0.88,1
Nc1ncnc(Nc2cccc(F)c2)n1,.,101,.,.,i,0.72,.
O=C(COc1ccccc1Cl)Nc1cc(Cl)ccc1Oc1ccccc1,-1.4,65,-6,92,i,0.89,-2
CCc1ccccc1NC(=O)c1cccc(N2C(=O)C3C4CCC(C4)C3C2=O)c1 (centres undefined),-2.3,89,-25,30,i,0.64,-7
Cc1nc(N=C(N)N)nc2ccccc12,.,103,23,95,i,0.75,-6
O=C(/C(=C/c1ccc(Cl)cc1)c1nc2ccccc2[nH]1)c1ccccc1,-2.5,106,.,.,i,0.52,-6
S=C(NCc1ccccc1Cl)NC1CCCC1,0.5,90,-7,70,i,1.1,-1
N#Cc1c(C(F)(F)F)cc(-c2ccc(Cl)c(Cl)c2)nc1SCCN1CCOCC1,-1.5,103,.,.,i,0.72,-16
O=C(CC1C(=O)NCCN1CC1CCCCC1)NCc1cc(F)ccc1F (centres undefined),.,101,.,.,i,1,2
COC(=O)c1ccccc1Sc1snnc1C,.,99,-33,138,i,0.94,0
COCCn1c(CN2CCN(C)CC2)nc2c1c(=O)n(C)c(=O)n2C,-2.4,106,.,.,i,0.9,-4
CCCN1C(=O)/C(=C/c2c(NCCCOC(C)C)nc3c(C)cccn3c2=O)SC1=S,-2.6,121,-23,141,?,.,6
CCC(C)c1ccc(OCC(=O)Nc2ccc(Cl)cn2)cc1 (centres undefined),-0.9,146,0,107,i,0.9,-2
Cc1cc(O)c(C(C)C)cc1N=Cc1cc([N+](=O)[O-])ccc1O,.,98,.,.,i,1.1,.
CCN(CC)S(=O)(=O)c1ccc(/C=C/C(=O)N(c2ccccn2)C2CCCCC2)cc1,.,100,.,.,i,0.9,1
Cc1ccc2cc(C)c(SCC#N)nc2c1,0.1,108,.,.,i,0.95,-8
CCOc1ccccc1NC(=O)C1=C(C)NC(=O)NC1c1cccc(OC)c1OC (centres undefined),-1.9,104,.,.,i,1.1,-5
Cc1ccc(-c2nn(-c3ccccc3)cc2C(=O)Nc2ccc(C(=O)O)cc2)cc1,.,99,47,122,i,1,1
CC1CCC2(CC1)NC(=O)N(CC(=O)c1ccc[nH]1)C2=O (centres undefined),-3.6,97,-6,66,i,0.98,12
CCOC(=O)c1cc2c(ccn2C)n1Cc1cc(C)ccc1C,-2.5,98,-91,92,i,1.1,0
Cc1cc(C)c(NC(=O)C2CSCCS2)c(C)c1 (centres undefined),-1.4,100,32,45,i,0.79,3
O=c1c2ccccc2c(C=NC2CCN(Cc3ccccc3)CC2)c(O)n1Cc1ccc2c(c1)OCO2,.,89,.,.,i,0.88,-3

# No enrichment for hits; any-hit rate near 1.3%.
